NPYLR7 ag: agonists of mosquito NPYLR7 receptor, primary screen, cell-based, Aedes aegypti, calcium fluorescence, mosquito biting behavior; actives 0.15% (n = 270,000); AID 1259423, 2018; Aedes aegypti neuropeptide Y-like receptor 7 (NPYLR7); activation, % at 10 µM; HEK293T NPYLR7/Galpha15, GCaMP6s calcium fluorescence; in the data active = activation above about 40%;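 note: 0% = vehicle and 100% = reference agonist at the receptor; some compounds past the cut are filed as inactive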
NPYLR7 ag max-min: recorded beside NPYLR7 ag, whose call it bears; activation, %; measured here: Max-Min RFU normalised activation; some inactives read as strong as hits;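 span of the calcium signal over five minutes; 0% = vehicle and 100% = native peptide agonist; compound fluorescence can raise it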
* hit, by the source's call; & = joins results of further samples. Some of the compounds tested; the hit share may differ from the screen's.

SMILES | NPYLR7 ag | NPYLR7 ag max-min
O=C(Cn1cccnc1=O)NC(c1ccccc1)c1cccc(Cl)c1 (stereo not drawn) | 9.1&14.6 | 17.6&13.1
Cc1cc(NC(=O)COC(=O)Cc2n[nH]c(=O)c3ccccc23)on1 | -4.7 | -2.9
COCCCNC(=O)Cn1ccn2nc(-c3ccc(OC)cc3)cc2c1=O | 3.1 | 3.8
CCOC(=O)C1CCCN(c2cc(Oc3cc(C)ccc3Cl)ncn2)C1 (stereo not drawn) | 13.7 | 14.5
CCOC(=O)CSc1ccc2nnc(CCNS(=O)(=O)c3ccccc3)n2n1 | -10.3 | -12.3
N#CC(=Cc1c(F)cccc1F)c1nc2ccccc2s1 | -1.4 | -1.6
CC1CCc2c(sc3ncnc(SCC(=O)N4CCCC4)c23)C1 (stereo not drawn) | 38.3 | 30.8
CS(=O)(=O)N1CCC(NC(=O)NCCc2cccc(F)c2)CC1 | 2.0 | 2.6
CN(Cc1ccc(F)cc1)C(=O)c1cc2occc2n1CC1CCCCO1 (stereo not drawn) | 23.9 | 14.6
FC1(F)Oc2ccc(NCc3nc(-c4ccsc4)no3)cc2O1 | 5.4 | 4.2
COc1ccc2[nH]c3c(c2c1)CCN(C(=O)c1ccc(NC(C)=O)cc1)C3c1ccc(-c2ccccc2C(F)(F)F)o1 (stereo not drawn) | -1.1 | -4.1
COc1cc(-c2ccc3ncnc(N4CCN(C)CC4)c3c2)cc(OC)c1OC | 2.8 | 1.5
CCn1cc(CN(C)CC(=O)N2CCCC2c2ccc3c(c2)OCCO3)cn1 (stereo not drawn) | 7.8 | 6.4
Cc1ccc(-c2ccnc(-n3ncc(C(=O)NCC4(N5CCCCC5)CCCC4)c3C3CC3)n2)o1 | 15.8 | 3.4
CCOc1ccc(CC(=O)N2CCN(c3ncnc4c3nnn4C)CC2)cc1 | 0.9 | 9.0
Cc1cccc(-c2nc3ccc(C)cn3c2Nc2c(C)cccc2C)c1 | -7.0 | -2.6
O=C(Nc1ccc(-n2cnnn2)cc1)c1cc(-c2ccco2)nc2ccccc12 | -0.9 | 8.9
COc1ccccc1-c1cc(C(=O)NCCCN2CCOCC2)n2nc(-c3ccc(Cl)cc3)cc2n1 | 16.9 | 15.0
CCc1nc2ccc(C(=O)Nc3cc(-c4ccccc4)ccc3OC)cn2c1N(CCN(C)C)CC1CC1 | -3.9 | -10.6
COc1ccc(OCC(=O)NNC(=O)C2COc3ccccc3O2)cc1 (stereo not drawn) | -0.5 | -6.0
CC(C)CCC(C)NC(=O)CNS(=O)(=O)c1ccc(Br)s1 (stereo not drawn) | 3.9 | 2.6
CCN(Cc1ccncc1)C(=O)c1coc(COc2cccc(F)c2)n1 | 5.0 | 1.4
C#CCSc1nc(-c2ccccc2)cc(C(F)(F)F)c1C#N | -5.3 | -12.1
CN1CCN(C2=CC(=[N+]3CCCCC3)CC(C)(C)C2)CC1 | 3.1 | 0.6
COc1ccc(OC)c(-n2c(C)c(C)n3c4c(=O)n(CCCO)c(=O)n(C)c4nc23)c1 | -1.3 | 5.1

(further entries)
SMILES | NPYLR7 ag | NPYLR7 ag max-min
COc1cccc2cc(C(C)NC(=O)C3CC3C)oc12 (stereo not drawn) | -0.9 | -2.8
CC1CCCN(Cn2cc(S(=O)(=O)N(C)C)ccc2=S)C1 (stereo not drawn) | -0.2 | -1.3
CC1(C)CC(NC(=O)C23CCC(C)(C(=O)O2)C3(C)C)CC(C)(C)N1 (stereo not drawn) | -1.0 | -0.9
O=C(COc1ccccc1)N1CCN(c2nccn2-c2cccc(Cl)c2)CC1 | 2.3 | 6.0
CC1=NC(C(F)(F)F)(C(F)(F)F)c2c(n(-c3ccc(C)c(C)c3)c(=O)[nH]c2=O)N1 | -6.9 | -12.8
CC1CCC2=C1C[C@H](C(C)(C)O)CC[C@@H]2C (stereo partly drawn) | 2.1 | -0.1
CCNC(=O)c1ccc(C2CCCN2Cc2cnc(-c3ccco3)nc2)s1 (stereo not drawn) | 21.4 | 1.5
CC1CCN(CC(=O)Nc2oc3ccccc3c(=O)c2-c2ccc(Cl)cc2)CC1 | 5.0 | 2.2
CCc1nc(N(CCC(=O)NCCN2CCOCC2)CCc2ccccc2)c2ccccc2n1 | -2.7 | 4.5
C=CCNC(=O)c1c(NC(=O)COc2ccccc2OC)sc2c1CCCC2 | -0.1 | -1.4
CS(=O)(=O)Nc1cccc(CNC(=O)c2ccccc2C(F)(F)F)c1 | 0.2 | 1.5
CCCC(C)NC(=O)CSC(C)c1ccccc1 (stereo not drawn) | 3.6 | 3.9
CSc1ccc(C2C(C(=O)OCC3CCCO3)=C(C)NC3=C2C(=O)CCC3)cc1 (stereo not drawn) | 5.0 | 12.8
O=C(O)CCc1ccc(S(=O)(=O)Nc2cc(Cl)cc(Cl)c2)cc1 | -1.2 | -1.4
COc1cc(NC(=O)CN2CC(C(=O)N3CCCCC3)Oc3ccccc32)cc(OC)c1 (stereo not drawn) | 17.0 | 15.4
CC(C)c1ccc2c(c1)C1(CC(=O)Nc3[nH]ncc31)C(=O)N2 (stereo not drawn) | 1.0 | 23.5
COCCN(CC(=O)N(Cc1ccccc1)Cc1cccn1Cc1cccc(OC)c1)C(=O)c1ccccc1 | 12.8 | 22.3
FC(F)(F)c1ccc(N2CCN(c3nc(-c4cccnc4)nc4ccccc34)CC2)nc1 | -2.7 | 9.0
Cn1nc(-c2cccc(NC(=O)COc3ccccc3)c2)ccc1=O | 2.3 | 0.5
COC(C(=O)NC(C)c1csc(C(C)C)n1)c1ccccc1 (stereo not drawn) | 7.4 | 7.3
CCc1nc(-c2ccccc2C)cc(=O)[nH]1 | 11.6 | 13.3
CN(CC#N)C(=O)COc1ccccc1OCc1ccccc1 | 4.3 | 3.0
CCOC(=O)C1CCN(C(=O)CCc2cc3c(n2-c2cc(OC)cc(OC)c2)-c2ccccc2CC3)CC1 | -1.8 | -1.6
Cc1cc(Br)ccc1N(C)C(=O)c1ccc(Cl)nc1Cl | -5.0 | -7.6
COc1ccc(-n2c(SCc3ccc(C(=O)O)cc3)nnc2-c2ccc(C)cc2)cc1 | 1.6 | 0.2

Other results
SMILES | NPYLR7 ag | NPYLR7 ag max-min
Cc1csc(=O)n1CC(=O)Nc1ccnn1Cc1c(Cl)cccc1Cl | 1.4 | -1.7
CN(C)CCNC(=O)C12CC3CCC(CC(C3)C1)C2 | 0.2 | -1.1
CCCc1nc(C(=O)N2CCN(S(=O)(=O)CC)CC2)cs1 | 13.9 | -0.9
COc1ncc(-c2c(-c3ccccc3)ncn2CCNc2cccnc2)cn1 | 1.0 | -6.9
COCC(C)NC(=O)c1cc2c(=O)n3cccc(C)c3nc2n1C (stereo not drawn) | 1.6 | 3.1
O=C(Cc1ccccc1F)NC1CCc2[nH]c3ccc(Br)cc3c2C1 (stereo not drawn) | 28.7 | 19.3
O=C(NCc1ccncc1)c1cnc(N2CCN(CCc3ccccc3)C2=O)o1 | 2.2 | 0.8
CCOc1ccc(C(=O)N2CCC(=O)N(CC3CC3)C(C(C)C)C2)o1 (stereo not drawn) | -2.0 | -2.8
Cn1c(-c2ccc(Cl)cc2)nn(CN2CCC(C(=O)NC(C)(C)C)CC2)c1=S | 5.5 | 5.4
COc1cc(C#N)ccc1OC(C)c1nc2ccccc2c(=O)[nH]1 (stereo not drawn) | -4.9 | -3.4
CN1C[C@H](O)[C@]2(CCN(C(=O)NCc3ccccc3)C2)S1(=O)=O | 3.1 | 7.0
COc1ccc(C)cc1NC(=O)CSc1nc(=O)n(N2CCN(C)CC2)c2c1CCCC2 | -6.4 | -13.7
CN1CCCCC1Cn1ccnc1-c1ccccc1OCCO (stereo not drawn) | 5.1 | 3.2
CC(Oc1ccccc1F)C(=O)NCCCn1nc(-c2ccco2)ccc1=O (stereo not drawn) | -1.0 | -2.4
Cn1c(-c2ccco2)nc2cnc(-c3cccc(O)c3)cc21 | -1.6 | -0.2
CCCCCc1ccc(C(=O)N(CC(=O)N(Cc2ccc3c(c2)OCO3)Cc2cccs2)C2CC2)cc1 | -10.3 | -12.7
COc1ccc(C(=O)Nc2nnc(-c3ccco3)s2)cc1 | -8.2 | -12.7
Cc1ccc(NCN2C(=O)c3ccccc3C2=O)cc1Cl | 4.9 | 3.8
O=C(Cn1ncn2c(cc3sccc32)c1=O)NC1CCCC1 | 5.7 | 5.2
CCN1CCN(c2c(CN(CCC(C)C)C(=O)c3cccc(Br)c3)c(C)nn2-c2ccccc2)CC1 | -4.0 | 4.8
Cc1noc(C)c1S(=O)(=O)N(C)CC(=O)NCc1ccccc1 | -2.5 | -5.0
CCOC(=O)COc1c(Cl)cc(Cl)cc1-c1ccno1 | -3.7 | -8.4
Cc1ccc(CSc2nc3c(c(=O)n(C)c(=O)n3C)n2Cc2ccccc2)cc1 | 6.9 | 4.5
Cc1ccc(C(C)NC(=O)N2CCN(C(=O)CC(F)(F)F)CC2)o1 (stereo not drawn) | 6.0 | 1.4
CCC(C)c1ccc(NC(=O)c2cccnc2N2CCCC2c2ccncc2)cc1 (stereo not drawn) | 2.2 | 3.5

(next part)
SMILES | NPYLR7 ag | NPYLR7 ag max-min
Cc1cccc(Cn2cnc3c(cnn3CCNC(=O)c3ccc4ccccc4c3)c2=O)c1 | -1.4 | -8.1
Brc1cnc2nc(C3CCCO3)[nH]c2c1 (stereo not drawn) | -12.8 | -10.4
COc1ccc(N2CCn3c(SCCc4ccccc4)nnc32)cc1 | 4.2 | 2.4
Cc1nonc1OCCn1c([N+](=O)[O-])cnc1C | -0.6 | -2.3
Cc1ccc(F)c(-n2nnnc2COc2ccccc2C#N)c1 | -3.5 | -6.0
CCCC(=O)NCCc1cc2c(OC)ccc(OC)c2[nH]c1=O | 0.4 | 43.7
Cc1[nH]ncc1S(=O)(=O)Oc1ccc(-n2cccn2)cc1 | 14.1 | 9.6
Cc1cc(C(=O)N2CCCC(N3CCN(c4cccc(Cl)c4)CC3)C2)no1 (stereo not drawn) | -1.2 | -3.0
O=C(c1ccc(-c2ccc(C3CCCCC3)cc2)s1)N1CCc2ccccc2C1 | 4.6 | 14.0
CCOC(=O)C1C(=O)CSC1=Nc1cccc(OC)c1 (stereo not drawn) | -11.7 | -7.0
COc1ccc(-c2cc(C(F)(F)F)n3nc(C(=O)N4CCN(c5ccc(F)cc5)CC4)cc3n2)cc1 | 0.5 | -3.9
CCOc1ccccc1C(=O)Nc1ccc(N2CCN(C(=O)CCCOc3ccccc3)CC2)nc1 | 5.6 | 3.6
CCOC(=O)c1ncn2c1CN(C)C(=O)c1cc(F)ccc1-2 | -10.8&-1.5 | -15.4&-29.1
Cn1c(-c2ccc(Cl)cc2)[n+](C)c2ccccc21 | 4.7 | 1.5
CC(C)CN(Cc1ccc(OS(=O)(=O)c2cccc(C(F)(F)F)c2)cc1)C(=O)COc1ccccc1 | 19.0 | 16.4
Cc1ccc(C(=O)Nc2ccc3c(c2)C(=O)c2ccccc2C3=O)cc1 | -1.0 | -4.0
CC1(C(=O)NS(=O)(=O)c2ccc(Cl)cc2)CCN1C(=O)C1CCCCC1 (stereo not drawn) | 6.4 | 4.1
O=C(Nc1nc(-c2cc3ccccc3oc2=O)cs1)c1cc(Cl)ccc1[N+](=O)[O-] | 3.7 | -0.4
Clc1ccc(-c2nnc(CSc3nncs3)o2)cc1 | 6.3 | 14.7
NC1=N[C@@]23COCC[C@@H]2CC(=O)[C@H]3S1 | 2.4 | 10.1
COc1cc2c(cc1OC)C1CN(C(=O)c3ccc(C#N)cc3)CC(=O)N1CC2 (stereo not drawn) | 17.9 | 1.3
COc1ccc(CCN2CC(NCc3ccc(-n4cccn4)cc3)CC2=O)cc1 (stereo not drawn) | 22.0 | 13.4
CSc1ccccc1NC(=O)C1(C)CCN1C(=O)C(C)(C)c1ccccc1 (stereo not drawn) | 2.5 | 2.6
O=S(=O)(N1CCCCC1)n1ccnc1 | -1.8 | -2.5
Cc1ccc(C)c(N2C(=O)/C(=C/c3ccc(Cl)cc3)C=C2c2ccccc2)c1 | -4.0 | 3.4
CC(C)(C)C(=O)NC12CC3CC(CC(C3)C1)C2 | 2.7 | 8.5
CC(C)(C)C(=O)N1CCCN(c2ccccc2S(C)(=O)=O)CC1 | 7.4 | 2.7
CC(CC(=O)Nc1c(-c2cc(F)ccc2F)nc2ccccn12)CC(C)(C)C (stereo not drawn) | 7.9 | 6.2

A draw from above in order of length of the SMILES, high to low.
SMILES | NPYLR7 ag | NPYLR7 ag max-min
COc1cc2c(cc1OC)C1CN(C(=O)c3ccc(C#N)cc3)CC(=O)N1CC2 (stereo not drawn) | 17.9 | 1.3
CC(CC(=O)Nc1c(-c2cc(F)ccc2F)nc2ccccn12)CC(C)(C)C (stereo not drawn) | 7.9 | 6.2
Cc1cc(C(=O)N2CCCC(N3CCN(c4cccc(Cl)c4)CC3)C2)no1 (stereo not drawn) | -1.2 | -3.0
COc1ccc(CCN2CC(NCc3ccc(-n4cccn4)cc3)CC2=O)cc1 (stereo not drawn) | 22.0 | 13.4
CC(C)(C)C(=O)N1CCCN(c2ccccc2S(C)(=O)=O)CC1 | 7.4 | 2.7
Cc1[nH]ncc1S(=O)(=O)Oc1ccc(-n2cccn2)cc1 | 14.1 | 9.6
CCCC(=O)NCCc1cc2c(OC)ccc(OC)c2[nH]c1=O | 0.4 | 43.7
Cn1c(-c2ccc(Cl)cc2)[n+](C)c2ccccc21 | 4.7 | 1.5
CC(C)(C)C(=O)NC12CC3CC(CC(C3)C1)C2 | 2.7 | 8.5
Cc1nonc1OCCn1c([N+](=O)[O-])cnc1C | -0.6 | -2.3
Clc1ccc(-c2nnc(CSc3nncs3)o2)cc1 | 6.3 | 14.7
Brc1cnc2nc(C3CCCO3)[nH]c2c1 (stereo not drawn) | -12.8 | -10.4
O=S(=O)(N1CCCCC1)n1ccnc1 | -1.8 | -2.5

High-throughput results (PubChem BioAssay)
